Screening data (PubChem BioAssay)
PI4K2A inh – blocks human PI4K2A kinase activity. activity change, negative = inhibition, % at 76.9 µM. AID 1346378. 0.13% of 420,000 active. purified PI4K2A, ADP-Glo luminescence, 1 h; stronger effect = lower value. Q9BTU6; in the data active means activity change below about -50%; inconclusive means mostly about -30% to -49%;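 further: -100% = wells without enzyme as full effect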
Target sequence (Q9BTU6 whole entry, looked up): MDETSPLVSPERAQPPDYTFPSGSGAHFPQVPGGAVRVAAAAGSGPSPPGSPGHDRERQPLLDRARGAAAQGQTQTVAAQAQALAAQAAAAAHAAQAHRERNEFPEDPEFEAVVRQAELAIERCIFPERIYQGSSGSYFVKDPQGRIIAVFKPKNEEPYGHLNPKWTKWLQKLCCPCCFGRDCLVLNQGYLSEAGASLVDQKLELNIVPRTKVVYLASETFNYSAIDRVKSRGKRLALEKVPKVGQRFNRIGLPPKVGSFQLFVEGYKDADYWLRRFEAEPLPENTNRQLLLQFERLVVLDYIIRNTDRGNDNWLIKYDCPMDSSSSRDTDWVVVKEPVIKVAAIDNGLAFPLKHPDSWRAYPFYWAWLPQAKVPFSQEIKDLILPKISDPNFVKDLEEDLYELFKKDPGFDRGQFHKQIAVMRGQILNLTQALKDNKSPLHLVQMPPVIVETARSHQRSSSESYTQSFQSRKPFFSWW
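In this quantitative HTS, ADP production by PI4K2A was quantified luminescently after 1 h at ambient temperature; 100 microM adenosine served as plate-quality control.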
GLS inhibitor – glutaminase GLS (human) inhibition. Potency, µM (top dose mostly 45.5 µM), without a hit: at the highest dose activity change, negative = inhibition, usual class: inhibitors. AID 624170. 0.21% of 410,000 active. GLS enzymatic activity, qHTS titration. O94925; further: potency means the concentration at half of the fitted maximal effect; on the % scale 0 is the no-effect control and ±100 the full control effect
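Assay buffer: 45 mM KH2PO4 pH 8.2, 0.02% Tween-20. hKGA acts on L-glutamine (1 mM solution added); product glutamate is reported by an oxidase/peroxidase Amplex Red coupling, with fluorescence taken at baseline and 30 min.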
12-LOX inh – inhibitors of human 12S-lipoxygenase ALOX12; P18054; purified 12hLO, xylenol orange hydroperoxide absorbance; Potency, µM (series often up to 108 µM), without a hit: top-dose activity change, negative = inhibition, hits mostly inhibitors; 1.1% of 580,000 active; further: potency means the concentration at half of the fitted maximal effect; on the % scale 0 is the no-effect control and ±100 the full control effect
Target sequence (P18054 whole entry, looked up): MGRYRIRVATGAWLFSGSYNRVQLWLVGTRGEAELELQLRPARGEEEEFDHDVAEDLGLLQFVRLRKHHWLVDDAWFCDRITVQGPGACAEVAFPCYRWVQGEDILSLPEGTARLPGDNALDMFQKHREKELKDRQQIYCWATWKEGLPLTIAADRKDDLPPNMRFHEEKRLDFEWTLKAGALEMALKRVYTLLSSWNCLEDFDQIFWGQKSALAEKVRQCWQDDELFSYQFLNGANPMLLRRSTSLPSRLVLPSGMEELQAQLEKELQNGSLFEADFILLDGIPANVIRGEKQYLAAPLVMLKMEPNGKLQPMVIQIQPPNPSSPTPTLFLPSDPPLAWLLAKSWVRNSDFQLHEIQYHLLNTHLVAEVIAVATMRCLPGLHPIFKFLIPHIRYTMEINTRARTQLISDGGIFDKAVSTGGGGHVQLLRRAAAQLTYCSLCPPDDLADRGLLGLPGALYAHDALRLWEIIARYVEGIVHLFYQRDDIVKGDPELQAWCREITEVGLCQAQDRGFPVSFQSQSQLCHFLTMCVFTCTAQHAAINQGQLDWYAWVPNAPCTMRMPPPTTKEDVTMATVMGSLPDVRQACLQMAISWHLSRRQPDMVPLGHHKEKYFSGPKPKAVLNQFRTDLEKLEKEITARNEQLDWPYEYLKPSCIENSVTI
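Purified human 12hLO at 150 nM in 25 mM Hepes, 0.01% Triton X-100, pH 7.0, preincubated 15 min at room temperature with compound. Reaction started with 40 uM arachidonic acid, 30 min at room temperature. Hydroperoxide measured by Fe-xylenol orange, 573/405 nm absorbance ratio.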
RGS4 inh – blocks human RGS4-accelerated GTP hydrolysis; P49798; Transcreener GDP fluorescence polarization, RGS4-accelerated GTP hydrolysis; 0.039% of 390,000 active; AID 504845; Potency, µM (highest dose often 114 µM), for inactives: at the highest dose activity change, negative = inhibition, actives largely listed as inhibitors; further: potency means the concentration at half of the fitted maximal effect; on the % scale 0 is the no-effect control and ±100 the full control effect; nearly all actives have a fitted effect of over 75% in size; some results filed as inactive show a strong effect at the top dose
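MLSMR compounds (23 nl, pin-transferred) preincubated 10 min at room temperature with a 500nM (2x) first reagent, then RGS4 at 900nM (2x) plus Transcreener GDP mix added; fluorescence polarization (620/688 nm) read before and after 90 min at 30 °C.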
ERG Ets-DNA blk – inhibitors of human ERG Ets domain-DNA interaction. fluorescence polarization, His-ERG Ets domain / labelled DNA. 0.028% of 370,000 active. AID 624246. P11308. Potency, µM (titrated, usually from 76.9 µM), without a hit: top-dose FP activity, negative = inhibition, hits mostly inhibitors; active means well fitted inhibition curve with a large enough effect in the polarisation, with a control signal flat; inconclusive means small, poorly fitted or top-dose-only effect, or effect the other way, or a change in a side signal; inactive means no such curve, though single readings can be large or run the other way; the % refers to the polarisation;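 further: polarization taken with two DNA probes labelled with fluorescein and Texas red; potency means the concentration at half of the fitted maximal effect; % of control where 0% means no effect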
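His-tagged ERG Ets domain (1 uM in the protein solution; 300mM KCl, 50mM Tris-HCl, 1mM EDTA, 1mM DTT, pH 7.5) received compound, then a probe mix of 5 nM fluorescein-DNA and 100nM Texas-615-DNA. Fluorescence polarization was read for both dyes.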
* marks the source's active call; other numbers are inactive results; i = inactive; ? = inconclusive; . = not tested or not shown; & = joins results of further samples; [ ] = dose if it differs, or a comment. Unless noted, the call rests on the fitted dose curve; in most records, active means well fitted curve in the direction sought with a large enough effect; inconclusive means small, poorly fitted or top-dose-only effect, or another doubt; inactive means no such curve, though single readings can be large; an effect the other way counts as inactive or inconclusive. Only part of the results is shown; rates above refer to the full screens.

PI4K2A inh | GLS inhibitor | 12-LOX inh | mol | RGS4 inh | ERG Ets-DNA blk
3 | 3% | ? | CN1CCN(c2oc(/C=C/c3ccccc3)nc2C#N)CC1 | 0% | 15%
-6 | -1% | -16% | CC(SCc1ccccc1)C(=O)Nc1ccccc1-c1ccccc1 (centres undefined) | -25% | 2%
-5&-5 | 18µM* | -1% | CC(=O)OCC1=C(C(=O)O)N2C(=O)[C@@H](NC(=O)CSc3ccncc3)[C@H]2SC1 | -3% | -11%
-2 | 0% | -7% | C[C@@H](NC(=O)c1nc[nH]c1C(=O)NC1CCN(C(=O)OC(C)(C)C)CC1)c1ccccc1 | 5% | 3%
5 | 37%[activator] | -31% | CCOC(=O)N1CCN(CC(=O)N2c3ccccc3Sc3ccccc32)CC1 | -22% | 2%
-1 | -10% | -12% | CC(C)Cc1nn2c(=O)cc(COC(=O)c3ccc(NC(=O)C4CCCCC4)cc3)nc2s1 | 21% | -1%
-4 | 12% | ? | Nc1n[nH]c(=S)n1-c1ccc(Cl)cc1 | ? | 0%
0 | -7% | -2% | CCC(Cn1nnc2ccccc2c1=O)NC(=O)Nc1cc(Cl)ccc1OC (centres undefined) | -8% | -1%
6 | 13% | ? | CS(=O)(=O)N(CC(=O)NCc1ccncc1)c1cc(Cl)ccc1Cl | 3% | -15%
1 | 7% | 0% | O=S(=O)(Cc1c(F)cccc1Cl)c1ncn[nH]1 | 14% | -3%
-2 | -10% | 18µM* | CCOc1[nH]c(/N=C/c2ccco2)c(C#N)c1C#N | 7%&-31% | -24%
-6 | 0% | -15% | CN1CCN(C(=O)c2ccc3c(c2)N(C)C(=O)/C(=C/c2cccc(Cl)c2)S3)CC1 | 4% | -6%
0 | 2% | ? | COc1ccccc1-n1c(-c2ccc(NS(C)(=O)=O)cc2)n[nH]c1=S | -5% | .
-2 | 6% | -18% | CC1CCN(CCOc2ccccc2-c2ccccc2)CC1 | -25% | -5%
0 | -1% | ? | COc1ccccc1/C=C1\C(=O)Nc2ccccc21 | 15% | 6%
0 | 8% | 45µM* | N#CC(c1ccncc1)(c1ncc(C(F)(F)F)cc1Cl)N1CCOCC1 (centres undefined) | -11% | -2%
-2 | 5% | -1% | CC(NS(=O)(=O)c1ccc(Cl)cc1)C(=O)OCC(=O)c1ccc[nH]1 (centres undefined) | 1% | 6%
3 | 28% | ? | C[N+](C)(CCOc1ccccc1)Cc1ccccc1 | -12% | 3%
-4 | -2% | -27% | C[C@H](NS(=O)(=O)c1ccc(Cl)cc1)C(=O)OCC(=O)c1ccc[nH]1 | 15% | -11%
0 | -13% | 40µM* | NC(=O)c1c(NC(=O)CCCn2cnc([N+](=O)[O-])n2)sc2c1CCCC2 | -126% | 8%
5 | 7% | 1% | O=c1cc(-c2ccccc2)nc2n1Cc1ccccc1-2 | -9% | -8%
2 | -4% | 0% | COc1cc(OC)cc(C(=O)N[C@H](C(=O)OCC(=O)c2ccc3c(c2)NC(=O)CO3)C(C)C)c1 | -8% | -3%
-4 | 6% | ? | COc1ccc(C2NC(C(=O)O)CS2)cc1COCC(F)(F)F (centres undefined) | 10% | -8%
3 | 14% | -16% | Cc1cccc(C(=O)N/N=C/c2ccc[nH]2)c1 | 20% | -5%
-1 | -6% | ? | O=C(c1cccc(F)c1)N1CCN(Cc2cccc(Br)c2)CC1 | 5% | -19%
1 | 9% | -76% | NS(=O)(=O)c1cccc(NS(=O)(=O)c2cccc(C(F)(F)F)c2)c1 | 9% | 10%
5 | -2% | 1µM* | COc1ccccc1CNCc1ccc(C)cc1 | 3% | 10%
5 | 15% | ? | CCN1CCN(c2cc(N3CCc4ccccc4C3)c(F)cc2[N+](=O)[O-])CC1 | 6% | -1%
-9 | 2% | -20% | COC(=O)c1scc(-c2ccc(C)cc2)c1S(=O)(=O)Nc1cccc(C(F)(F)F)c1 | 7% | -5%
3 | 2% | ? | N#CC1=C2SCN(C3CCCCC3)CN2C(=O)CC1c1ccc(F)cc1 (centres undefined) | ? | -4%
-1 | 8% | -7% | Cc1ccccc1C(=O)Nc1cccc(C(=O)OCc2cc(=O)n3nc(C4CC4)sc3n2)c1 | 8% | 2%
-2 | -18% | ? | CC1CCN(c2oc(/C=C/c3ccc(F)cc3)nc2C#N)CC1 | 22% | -5%
-2 | -15% | -6% | Cc1cccc(CNC(=O)c2cnc3sc(N4CCOCC4)nn3c2=O)c1 | -6% | -1%
-5 | . | 0% | COc1ccc(C(C#N)Nc2ccccc2C)cc1 (centres undefined) | 0% | -3%
-1 | 3% | -3% | CCCc1nnc(NC(=O)c2cccs2)s1 | 23% | -5%
-6 | -6% | ? | Cc1ccc(N2C(=O)C3CCCN3C2=S)cc1Cl (centres undefined) | -13% | -1%

Shown with the structure last: entries from further up
PI4K2A inh,GLS inhibitor,12-LOX inh,RGS4 inh,ERG Ets-DNA blk,SMILES
5,15%,?,6%,-1%,CCN1CCN(c2cc(N3CCc4ccccc4C3)c(F)cc2[N+](=O)[O-])CC1
-9,2%,-20%,7%,-5%,COC(=O)c1scc(-c2ccc(C)cc2)c1S(=O)(=O)Nc1cccc(C(F)(F)F)c1
3,2%,?,?,-4%,N#CC1=C2SCN(C3CCCCC3)CN2C(=O)CC1c1ccc(F)cc1 (centres undefined)
-1,8%,-7%,8%,2%,Cc1ccccc1C(=O)Nc1cccc(C(=O)OCc2cc(=O)n3nc(C4CC4)sc3n2)c1

Further entries follow.
PI4K2A inh | GLS inhibitor | 12-LOX inh | mol | RGS4 inh | ERG Ets-DNA blk
1 | -4% | ? | Cc1ccc(OCCCN2CCOCC2)c([N+](=O)[O-])c1 | 1% | 3%
-7 | 0% | ? | CCc1ccc2nc(N(CCCN(C)C)C(=O)c3ccc(C(=O)c4ccccc4)cc3)sc2c1 | -15% | 11%
0 | 1% | ? | COc1ccc(OC)c(-n2c(-c3cc(-c4ccc(F)cc4)n[nH]3)n[nH]c2=S)c1 | -9% | 2%
12 | -2% | -3% | O=C(Cn1nc(-c2ccccc2)nc1-c1ccccc1)OC1CCCCC1 | -10% | 5%
-14 | 2% | 28% | Cc1ccc(CNC(=O)Cn2cnc(S(=O)(=O)N3CCC(C)CC3)c2)o1 | -9% | 7%
3 | 5% | 0% | CCC1CN(C(=O)Nc2ccc(C(=O)O)cc2)c2cc(Cl)ccc2O1 (centres undefined) | -1% | 2%
4 | 6% | 2% | Cc1cc(N/N=C\c2ccc(Br)cc2)nc(-n2nc(C)cc2C)n1 | 12% | 5%
-3 | 29% | -18% | Cc1nn(-c2ccccc2)c2[nH]c(=O)c(CNCC3CCCO3)cc12 (centres undefined) | 21% | -4%
-23 | -1% | ? | Cc1ccc(C(=O)CSc2nc(O)cc(=O)[nH]2)cc1C | -22% | -2%
-6 | 0% | 0% | COC(=O)c1ccc(CSc2cc(C)c3cc(C)cc(C)c3n2)o1 | -6% | 10%
3 | -1% | i | O=C(NC1CCCCCC1)C1CCN(C(=O)c2ccc(Br)cc2)CC1 | 8% | -13%
3 | 0% | ? | COC(=O)C1=NN(c2ccc(OC)cc2)C2C(=O)N(c3ccccc3OC)C(=O)C12 (centres undefined) | -5% | -8%
-4 | -5% | ? | Cc1ccc(S(=O)(=O)N2c3ccccc3-c3c(ssc3=S)C2(C)C)cc1 | -40% | -13%
-7 | ? | -9% | CC(C)[C@H](NC(=O)c1ccco1)C(=O)OCc1cc(=O)n2c(n1)sc1ccccc12 | -24% | 1%
0 | 15% | -5% | COc1cccc(CC2(CO)CCCN(Cc3ccc4c(c3)OCCO4)C2)c1 (centres undefined) | 21% | -1%
-3 | -4% | -12% | COc1ccc(CNC(=O)C(CC(C)C)N2Cc3ccccc3C2=O)cc1 (centres undefined) | -17% | 0%
8 | -3% | -13% | O=C(/C=C/NNC(=O)c1cccc(Br)c1)c1ccccc1 | -11% | 0%
1 | -2% | ? | CC(c1ccccc1)C1NC(C(=O)O)CS1 (centres undefined) | -8% | -8%
-5 | 5% | 0% | CCOC(=O)c1ccc(N=Cc2c(O)c3ccccc3oc2=O)cc1 | 15% | -10%
7 | -13% | 10% | COc1cccc(/C=C/C(=O)OCC(=O)c2ccc3c(c2)NC(=O)CO3)c1OC | -4% | 1%
-2&1 | -1%&1% | 59%&-24%[activator] | CCOC(=O)c1ccc(Nc2nc(C)cc(C)n2)cc1 | 10%&-9% | 4%&-5%
2 | -4% | -11% | CCC(Cn1nnc2ccccc2c1=O)NC(=O)Nc1ccc(C)cc1 (centres undefined) | 9% | -5%
10 | 12% | ? | C/C(=N\Nc1ccc(Cl)cc1)c1c(O)cc(C)oc1=O | ? | -13%
3 | -2% | 1% | CC(C)OC(=O)CSc1nnc(-c2ccccn2)n1-c1ccccc1 | -4% | 4%
-6 | 9% | ? | COC(=O)C1=NN(c2ccc(Cl)cc2)C2C(=O)N(c3ccccc3OC)C(=O)C12 (centres undefined) | 4% | .
1 | 0% | -7% | Clc1cccc(CNCCNCc2cccc(Cl)c2)c1 | 4% | 74%[activator]
6 | 3% | ? | CC(C(=O)NC1CCCC1)N1CCN(Cc2ccccc2)CC1 (centres undefined) | 13% | -2%
0 | 11% | 3% | CN=C(C[N+](=O)[O-])NCCSCc1ccc(CN(C)C)o1 | -5% | 2%
1 | -3% | -7%[57.4 µM] | O=[N+]([O-])c1cc(-c2n[nH]c(-c3ccccc3)n2)cc([N+](=O)[O-])c1 | 22% | .
1 | 5% | -10% | C=CCSc1nnc2c(n1)[nH]c1c(C)cccc12 | -20% | .
0 | -12% | 45µM* | O=C(Nc1nnc(COc2ccc(Cl)cc2)s1)c1ccco1 | ? | 13%
-2 | 1% | 8% | C[C@H](NC(=O)c1nc[nH]c1C(=O)N(C)Cc1ccccc1)C(=O)OC(C)(C)C | 0% | 1%
-2 | 0% | 1% | Cc1cccc(C)c1Nc1sc(C(=O)c2ccccc2)c(N)c1C(=O)Nc1ccc(F)cc1 | 3% | 2%
? | -2% | 167%[activator] | CCCOC(=O)c1ccc(NC(=O)c2ccoc2C)cc1 | -24% | -7%
2 | -6% | 3% | O=C(O)c1cccc(S(=O)(=O)N2CCSCC2)c1 | -31% | 3%
0 | 0% | 0% | COc1ccccc1NC(=O)C(=O)N(c1cccnc1)C(C(=O)NC(C)(C)C)c1ccccc1F (centres undefined) | -19% | 0%
2 | 25% | ? | COCCCn1c(SCC(=O)NC(C)C)nnc1-c1ccccc1 | -11%[11.4 µM] | -3%
-1 | -4% | 16% | COc1ccc(CCN(C)C(=O)C2CCN(Cc3ccc(C)cc3)CC2)cc1OC | -15% | 7%
1 | 5% | -1% | Cc1ccc(OCC(=O)OCc2cc(=O)n3nc(C4CC4)sc3n2)cc1 | -7% | 3%
5 | 14% | -3% | COc1ccccc1N1CCN(C2CCCN(Cc3ccc(Cl)cc3)C2)CC1 (centres undefined) | 3% | 0%
1 | ? | ? | CCOC(=O)c1sc2ccccc2c1S(=O)(=O)Nc1cccc(C(F)(F)F)c1 | 22% | 2%
3 | -2% | 3% | CNC(=O)CSc1nnc(-c2ccco2)n1-c1ccccc1 | 17% | -11%
-7 | -4% | ? | Cc1ccc(SCC(=O)NC(=O)NCc2ccco2)c(C)c1 | -9% | -17%
5 | -19% | 9% | Nc1ccc(OCCc2ccccc2)cc1 | -25% | -10%
-5 | -6% | -22% | CC(C)c1nn2c(=O)cc(COC(=O)c3cccc(NC(=O)COc4ccc(F)cc4)c3)nc2s1 | -4% | -4%
6 | 7% | -18% | Cc1ccc(C(=O)C=CNNC(=O)c2ccccc2)cc1 | -18% | 5%
4 | -5% | 0% | CSc1cccc(N2C(=O)C3CCCN3C2=S)c1 (centres undefined) | -35% | -1%
